VACV mCherry inh = inhibitors of vaccinia virus infection (mCherry reporter signal). Potency, µM (doses to about 36.5 µM), for the others: at the highest dose activity change, negative = inhibition, actives largely listed as inhibitors. AID 720579. Vaccinia virus mCherry reporter infection, fluorescence; about a quarter of the inactives have no number. 310,000 tested, 0.63% active; active = well fitted inhibition curve with a large enough effect; inconclusive = small, poorly fitted or top-dose-only effect; inactive = no such curve, though single readings can be large or run the other way; tested in A549 cells; also: nearly all actives have a fitted effect of over 35% in size; inactives centre near -10
Vaccinia Venus = vaccinia inhibition (Venus reporter); Vaccinia virus Venus reporter expression, fluorescence; Potency, µM (series often up to 36.5 µM), for the others: at the highest dose activity change, negative = inhibition, most hits filed as inhibitors; 330,000 tested, 0.46% active; AID 720580; active means well fitted inhibition curve with a large enough effect; inconclusive means small, poorly fitted or top-dose-only effect; inactive means no such curve, though single readings can be large or run the other way; tested in A549 cells; also: nearly all actives have a fitted effect of over 30% in size; inactives centre near -10
* = called active by the depositor; i = inactive; ? = inconclusive; / = no result given; & = joins results of further samples; [ ] = another dose, or the depositor's remark. % is scaled to controls: 0 for no effect and ±100 for the full control effect; potency is read from the fitted curve at half-maximal effect.

SMILES	VACV mCherry inh	Vaccinia Venus
COc1ccc(S(=O)(=O)n2nc(C)c(S(=O)(=O)N3CCC(C)CC3)c2C)cc1OC	3.1%	-1.7%
CCSC(N)=Nc1ccc(C(F)(F)F)cc1	i	-16.9%
Cc1ccc(CNc2ccc(Cl)cc2[N+](=O)[O-])cc1	i	-11.0%
O=C1CCNCCN1[C@H](CO)c1ccccc1	-11.5%	-3.5%&2.0%
C[C@H](c1ccccc1)n1nnc(COCc2ccccc2)c1C#CCOCc1ccccc1	?	-16.1%
CC(C)C[C@H](NC(=O)c1nc[nH]c1C(=O)NCC(=O)OC(C)(C)C)C(=O)OCc1ccccc1	?	-2.5%
CCN1CCC2(CC1)Oc1c(OC)cccc1C1CC(c3cccnc3)=NN12 (stereo unspecified)	-27.1%	0.2%
O=c1c2ccccc2oc2ccc(-c3ccc4[nH]ccc4c3)cc12	?	?
Cc1ccc(CNC(=O)CCCCn2c(=O)c3ccccc3n(Cc3ccc(Cl)cc3)c2=O)cc1	?	-15.4%
CCCOc1ccc(-c2cc(C(F)(F)F)c(C#N)c(SCC(=O)O)n2)cc1	-2.5%	3.3%
COc1ccc(NC(=O)Cn2cnc3sc(C)c(S(=O)(=O)N4CCN(C)CC4)c3c2=O)cc1OC	-8.8%&-11.8%	3.0%&-8.2%
C=CCn1c(SC(C)C#N)nc2sc(CC)cc2c1=O (stereo unspecified)	-12.7%	-12.0%
COc1ccc(Cl)cc1-c1cc(C(=O)NCc2cccs2)[nH]n1	-0.9%	-14.2%
COC(=O)NCC(C)OC(=O)Nc1ccc(Cl)cc1 (stereo unspecified)	i	-25.0%
Cc1cc(S(=O)(=O)Nc2ccccc2C)ccc1F	-23.6%	-18.0%
O=C(C[n+]1cccc2ccccc21)c1ccc(F)cc1	i	2.9%
Cc1cccc(C)c1NC(=O)C1c2ccccc2OCC(=O)N1Cc1ccccc1 (stereo unspecified)	-5.4%	0.7%
O=C(CN1CCCN(Cc2ccc(F)cc2Cl)C1=O)NC1CCCC1	-15.4%	-13.8%
CCOc1nc(-c2ccccc2)c2cc(Br)ccc2n1	-2.2%	-3.6%
COCCn1c(SCC(=O)Nc2ccccc2C)nc2c(oc3ccccc32)c1=O	-6.5%	-9.0%
CCOCCn1c(CC)nc2ccccc21	-0.6%	-7.6%
CCn1c(SCC(=O)N2CCCC(C)C2)nnc1-c1ccco1 (stereo unspecified)	-2.4%	-10.2%
Cn1c(NCC(O)CO)nc2c1c(=O)n(Cc1ccc(Cl)c(Cl)c1)c(=O)n2C (stereo unspecified)	/	?
O=C(N/N=C\c1c(O)ccc2ccccc12)c1cncc(Br)c1	?	-21.0%
CCn1ncc(/C=N/O)c1C	/	-26.0%
CC(Sc1nnc(-c2ccc(O)cc2)o1)C(=O)Nc1cccc2ccccc12 (stereo unspecified)	-21.1%	-16.0%
CCc1nc(SCC(=O)Nc2ccc(NC(C)=O)cc2)n[nH]1	-14.0%	-2.0%
O=C(Cc1cccc2ccccc12)NCCOc1ccccc1F	i	-18.0%
Cn1cc(C(=O)C(=O)NC2CC2)c2ccccc21	i	-14.7%
Cc1ccc(CNC(=O)C2CCN(S(=O)(=O)c3cccc4nonc34)CC2)cc1	-12.6%&-7.0%	-13.8%&-2.3%
CC(C)CC(=O)CN1C(=O)C2(OCCO2)c2ccccc21	-1.3%	-7.6%
CNC(=O)c1[nH]cnc1C(=O)N[C@@H](Cc1ccccc1)C(=O)OC(C)(C)C	i	-13.3%
COCCN1CCN(Cc2ccc(C(=O)NC(C)C)cc2)C(=O)C1=O	-5.1%	3.8%
CCCCCCn1cc(C(=O)O)c(=O)c2cc(F)c(N3CCN(C(=O)OCC)CC3)cc21	i	-4.6%
CCn1c2ccccc2c2cc(/C=N/NC(=O)c3ccncc3)ccc21	?	-26.7%
CCN(CC)CCCC(C)Nc1nccc2c(Cl)cccc12 (stereo unspecified)	-21.2%	?
O=c1ccc2cc([N+](=O)[O-])c(CCO)cc2o1	i	2.0%
CCN1CCN(c2nc(Nc3cc(OC)ccc3OC)nc(Nc3cc(OC)ccc3OC)n2)CC1	-1.1%	-8.3%
OCCCN1CCN(CCOc2ccccc2-c2ccccc2)CC1	i	-8.9%
Cn1c(-c2ccccc2)cnc1N	-3.0%	-20.4%
O=C1c2ccccc2C(=O)N1CCCCc1cn(C[C@H]2CC[C@@H]([C@@H]3CC[C@H](Cn4cc(CCCCN5C(=O)c6ccccc6C5=O)nn4)O3)O2)nn1	-8.7%	-3.7%
Cn1cc(CN2CCC(C(=O)N3CCCC3)CC2)c(-c2ccccc2F)n1	i	-26.4%
Cc1cc(C)n2[nH]c(=O)c(N=Nc3cccc(C(F)(F)F)c3)c2n1	/	-7.0%
COc1ccccc1NC(=O)N(CCN(C)C)Cc1cc2cc(C)ccc2[nH]c1=O	/	-10.2%
COCCNC(=O)CN1C(=O)CN=C(c2ccccc2)c2ccccc21	i	7.9%
COc1cccc2cc(C(=O)OCC(=O)NC3CCCC(C)C3C)c(=O)oc12 (stereo unspecified)	-1.9%	-3.3%
COc1ccc(-c2coc3c2c(C)cc2oc(=O)c(CC(=O)O)c(C)c23)cc1	-2.6%	5.1%
Cc1nn(Cc2n[nH]c(=S)n2Cc2ccccc2)c(C)c1Cl	/	-18.9%
COc1ccccc1C(=O)NCC(=O)OCC(=O)Nc1cccc(S(=O)(=O)N2CCCCCC2)c1	2.3%	-9.4%
COCCNC(=O)CC(=O)N/N=C/c1ccc(C(=O)OC)cc1	-13.5%	0.2%
CCC(C)(C(=O)Nc1ccccc1C)N(C(=O)CNC(C)=O)c1ccc(C)cc1 (stereo unspecified)	-12.6%	-4.7%
CCOC(=O)N1CCN(C(c2ccc(F)cc2)c2sc3nc(C)nn3c2O)CC1 (stereo unspecified)	i	-2.4%
CC(C)(C)S(=O)N1Cc2cc(CO)cc(CCO)c2[C@H]1CCO (stereo partly specified)	-5.8%	0.6%
COc1ccc([N+](=O)[O-])cc1NS(=O)(=O)c1cccc(C(=O)O)c1	i	-14.9%
COc1ccc(/C=C(\C#N)C(=O)Nc2ccccn2)cc1	-5.0%	-2.3%
COc1ccc(CN2CCOc3ccc(C(O)c4cccnc4)cc3C2)cc1O (stereo unspecified)	-12.7%	-6.6%
CC(=O)c1cccc(NC(=O)[C@@H](NC(N)=O)C(C)C)c1	-18.9%	-6.5%
CCOc1ccccc1NC(=O)COC(=O)c1c[nH]c2ccccc12	-6.8%	?
O=C1OCCN1C(=O)[C@H]1[C@H](c2ccc(Cl)cc2)C(c2ccccc2)=NN1c1ccccc1	-9.0%	-14.2%
C#CCCOC(=O)N1C2=NC(C(=O)OC)=C(C(=O)OC)[C@@H]3N(Cc4ccccc4)c4ccccc4[C@]23C[C@H]1C(=O)OC	i	?

(cont.)
SMILES	VACV mCherry inh	Vaccinia Venus
O=C(Nc1nccs1)c1ccc(-c2ccccc2[N+](=O)[O-])o1	-7.9%	-18.7%
COc1ccc2cc(C(=O)C3CCCN(C(=O)c4cnn(C(C)C)c4)C3)ccc2c1 (stereo unspecified)	-3.4%[7.34 µM]	11.5%[7.34 µM]
CCOC(=O)c1c(C=O)c2sc(C)cc2n1C	-14.5%	-14.8%
COc1cc(OC)c2cc(C(=O)N/N=C/c3cccc(OC)c3O)[nH]c2c1	11.2µM*	-25.7%
CC(=O)N1c2ccc(S(=O)(=O)N3CCCC(C(=O)NCc4ccccc4Cl)C3)cc2CC1C (stereo unspecified)	?	?
CCOC(=O)c1sc2ncnc(N3CCN(C)CC3)c2c1C	-11.9%	-13.0%
C=CCn1c2ccccc2c2nnc(SC(CC)C(=O)Nc3nc(C)c(C(=O)OCC)s3)nc21 (stereo unspecified)	15.7%	-6.6%
COc1c([N+](=O)[O-])ccc(N)c1N	-25.1%	-17.9%
CCOC(=O)c1cccc(NS(=O)(=O)c2ccc(-c3cnc(C4CC4)o3)cc2)c1	-26.9%	-16.1%
O=C(CCc1ccccc1)N(Cc1cccnc1)c1nc2ccc(F)cc2s1	-15.0%	-10.9%
O=C(CCc1ccccc1)N1Cc2cc(-c3ccccc3)ccc2-n2nncc2C1	i	-4.2%
CCN(CC)CCn1c(NS(=O)(=O)c2ccc(C)cc2)nc2ccccc21	-1.6%	-19.9%
N#Cc1c(NCCCO)nc(-c2ccco2)c2c1CCCC2	/	-24.5%
CNC(=S)Nc1cc(OC)ccc1OC	-12.8%	4.1%
CCOC(=O)Cc1cc(-c2ccc(OC)cc2)nc2ccc3ccccc3c12	-14.5%	0.0%

Full records, quoted from the list. Order of values: VACV mCherry inh	Vaccinia Venus
`CC(C)(C)S(=O)N1Cc2cc(CO)cc(CCO)c2[C@H]1CCO` (stereo partly specified) is entered as -5.8%	0.6%
`COCCNC(=O)CC(=O)N/N=C/c1ccc(C(=O)OC)cc1` is entered as -13.5%	0.2%
`CCOC(=O)c1cccc(NS(=O)(=O)c2ccc(-c3cnc(C4CC4)o3)cc2)c1` is entered as -26.9%	-16.1%

Next structures:
SMILES	VACV mCherry inh	Vaccinia Venus
COc1ccc(C2CCCN2C(=S)Nc2ccc(C)c(C)c2)cc1OC (stereo unspecified)	-4.5%	0.9%
Cc1nc(N2CCOCC2)nc(N2CCCCC2)c1[N+](=O)[O-]	-14.5%	-26.0%
COc1cccc(C(NC(C)=O)c2nc(-c3ccc(OC)nc3)cs2)c1 (stereo unspecified)	-17.6%	0.5%
COc1ccc(CNc2oc(COc3ccc(Cl)cc3)nc2C#N)cc1	i	-14.7%
CC(C)c1cc(C(=O)NNC(=S)NCc2ccco2)c(O)c(C(C)C)c1	?	?
Cc1ccc(-c2nc(CS(=O)CC(=O)NCc3ccccc3Cl)c(C)o2)cc1 (stereo unspecified)	-7.4%	-8.3%
COc1ccc(C(=O)NNc2ncnc3c2cnn3-c2ccccc2)cc1	-4.8%	2.2%
CN(Cc1ccccc1F)c1ncnc2sccc12	i	-9.8%
CN1OC[C@@H]2CN(S(=O)(=O)c3cccc(C(F)(F)F)c3)[C@H](c3ccc(N4CCCCC4)cc3)C[C@@H]21	i	-1.2%
COc1ccc(CCN(C(=O)c2snc(C(N)=O)c2N)C(C(=O)NCC2CCCO2)c2ccc(F)cc2)cc1OC (stereo unspecified)	-7.9%	-15.6%
Cc1noc(C(=O)NCc2ccco2)c1Cl	-14.8%	-12.0%
O=C(CSc1nc2ccccc2c(=O)[nH]1)Nc1nc(-c2ccc(Br)cc2)cs1	-12.0%	-1.1%
Cc1ccc(S(=O)(=O)CCc2nnc(NC(=O)C3CCCO3)s2)cc1 (stereo unspecified)	/	-16.1%
CCOC(=O)c1ccc(NC(=O)c2cn(-c3ccccc3)nc2-c2ccc(C)cc2)cc1	-7.7%	-3.2%
Cc1ccc(-n2c(-c3ccccc3)nnc2-c2cccs2)cc1	i	-7.7%

20 compounds from above, ordered by SMILES length, high to low:
SMILES	VACV mCherry inh	Vaccinia Venus
CN1OC[C@@H]2CN(S(=O)(=O)c3cccc(C(F)(F)F)c3)[C@H](c3ccc(N4CCCCC4)cc3)C[C@@H]21	i	-1.2%
COc1ccc(CCN(C(=O)c2snc(C(N)=O)c2N)C(C(=O)NCC2CCCO2)c2ccc(F)cc2)cc1OC (stereo unspecified)	-7.9%	-15.6%
C=CCn1c2ccccc2c2nnc(SC(CC)C(=O)Nc3nc(C)c(C(=O)OCC)s3)nc21 (stereo unspecified)	15.7%	-6.6%
CCOC(=O)c1ccc(NC(=O)c2cn(-c3ccccc3)nc2-c2ccc(C)cc2)cc1	-7.7%	-3.2%
CCOC(=O)c1cccc(NS(=O)(=O)c2ccc(-c3cnc(C4CC4)o3)cc2)c1	-26.9%	-16.1%
O=C(CSc1nc2ccccc2c(=O)[nH]1)Nc1nc(-c2ccc(Br)cc2)cs1	-12.0%	-1.1%
Cc1ccc(-c2nc(CS(=O)CC(=O)NCc3ccccc3Cl)c(C)o2)cc1 (stereo unspecified)	-7.4%	-8.3%
O=C(CCc1ccccc1)N1Cc2cc(-c3ccccc3)ccc2-n2nncc2C1	i	-4.2%
CC(C)c1cc(C(=O)NNC(=S)NCc2ccco2)c(O)c(C(C)C)c1	?	?
CCN(CC)CCn1c(NS(=O)(=O)c2ccc(C)cc2)nc2ccccc21	-1.6%	-19.9%
COc1cccc(C(NC(C)=O)c2nc(-c3ccc(OC)nc3)cs2)c1 (stereo unspecified)	-17.6%	0.5%
O=C(CCc1ccccc1)N(Cc1cccnc1)c1nc2ccc(F)cc2s1	-15.0%	-10.9%
COc1ccc(C(=O)NNc2ncnc3c2cnn3-c2ccccc2)cc1	-4.8%	2.2%
COc1ccc(CNc2oc(COc3ccc(Cl)cc3)nc2C#N)cc1	i	-14.7%
Cc1ccc(-n2c(-c3ccccc3)nnc2-c2cccs2)cc1	i	-7.7%
N#Cc1c(NCCCO)nc(-c2ccco2)c2c1CCCC2	/	-24.5%
COc1c([N+](=O)[O-])ccc(N)c1N	-25.1%	-17.9%
CN(Cc1ccccc1F)c1ncnc2sccc12	i	-9.8%
Cc1noc(C(=O)NCc2ccco2)c1Cl	-14.8%	-12.0%
CNC(=S)Nc1cc(OC)ccc1OC	-12.8%	4.1%
